# Polio RdRp inh: poliovirus RdRp elongation inhibitors, primary screen, biochemical, fluorescence polarization, total intensity; Genome polyprotein (Poliovirus type 1 (strain Mahoney)), P03300; poliovirus polymerase elongation; hits give low values; % elongation, % (compound at 16.7 µg/mL); 0.66% of 150,000 active; AID 588519, 2011; in the data active = % elongation below about 90%; also: some results filed as inactive read as strong as hits
# Mtb MenB inh: M. tuberculosis MenB inhibitors, primary screen, biochemical, absorbance; inhibition, %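 (about 12 µg/mL by stock and volumes)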; 0.43% of 100,000 active; MenB enzyme assay, absorbance read-out; some hits fall short of the stated cut; 1,4-dihydroxy-2-naphthoyl-CoA synthase (Mycobacterium tuberculosis (strain ATCC 25618 / …; AID 540299, 2011;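 active = mean of two replicates above 30%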;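 also: 0% = no compound and 100% = wells with inactive enzyme; the first replicate is given; strong numbers were not always called active; inactives centre near -10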
# Target sequence (P9WNP5 whole entry, looked up): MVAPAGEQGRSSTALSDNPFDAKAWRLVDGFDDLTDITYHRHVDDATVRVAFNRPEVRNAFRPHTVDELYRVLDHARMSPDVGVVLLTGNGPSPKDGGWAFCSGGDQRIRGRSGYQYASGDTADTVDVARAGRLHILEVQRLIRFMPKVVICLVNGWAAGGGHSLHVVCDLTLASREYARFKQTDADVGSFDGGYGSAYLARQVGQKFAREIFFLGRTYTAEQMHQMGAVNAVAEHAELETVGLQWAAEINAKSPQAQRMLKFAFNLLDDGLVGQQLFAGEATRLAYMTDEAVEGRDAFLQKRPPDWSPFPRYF
# MbtI inh: MbtI salicylate synthase inhibitors, primary screen, biochemical, fluorescence intensity; inhibition, %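 (about 17 µg/mL by stock and volumes)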; AID 493033, 2011; 0.89% of 100,000 active; P9WFX0; purified MbtI enzyme, fluorescence intensity read-out;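 active = above 50% in both replicates, above 80% if mildly self-fluorescent; inactive = the rest, strongly fluorescent compounds included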;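 also: 0% = mean of negative and 100% = mean of positive controls; one replicate is shown; some compounds called inactive have numbers as strong as hits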
# Polio RdRp inh intensity: further read-out of Polio RdRp inh, marked with its call; % elongation; measured here: total intensity read-out; formula for this scale not given here;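 total fluorescence in place of polarization; lower means less elongation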
# Active calls of the source: *; i = inactive; x = not tested or not shown; & = joins results of further samples.
canonical_smiles	Polio RdRp inh	Polio RdRp inh intensity	Mtb MenB inh	MbtI inh
CCn1nc(C)c(Br)c1-c1nc(-c2cccc(C)c2)no1	103	100	2	1
CC(C)OC(=O)C(Cc1ccccc1)N1COc2ccc3c4c(c(=O)oc3c2C1)CCC4 (stereo not drawn)	99	100	-36	i
CC1(C)C2CCC13CSN1OC13C2 (stereo not drawn)	102	103	18	1
O=C(NCc1cccnc1)NC1(c2ccccc2)CC1	100	108	-11	x
CC1Cc2ccccc2N1C(=O)CCS(=O)(=O)c1ccc2c(c1)CCN2C(=O)C1CC1 (stereo not drawn)	102	104	7	-16
Cc1[nH]nc2cc(F)ccc12	101	101	-16	2
COc1ccc(NC(=S)Nc2ccc(S(=O)(=O)N3CCOCC3)cc2)cn1	102	102	-15	2
CN(Cc1ccccc1Cl)C(=O)c1ccc(O)c(Cl)c1	104	105	-4	5
COc1ccc2c(c1)c(=O)oc1c(C)c3occ(C)c3cc12	102	98	3	7
CC1CCCCN1c1ccc(NC(=O)c2cccnc2)cc1 (stereo not drawn)	104	106	-25	8
Cc1ccccc1Nc1nn2c(=O)c3ccc(C(=O)NCCC4=CCCCC4)cc3nc2s1	104	104	-2	-8
O=c1cc(N2CCN(c3ccccc3)CC2)[nH]c(=O)n1-c1ccc(Br)cc1	99	102	-9	0
CC(C)CC1Nc2ccc(C(=O)NCC3COc4ccccc4O3)cc2NC1=O (stereo not drawn)	102	102	-1	22
N#C/C(=C\c1[nH]c2ccccc2c1O)C(=N)N1CCOCC1	68	192	-88	16
NNC(=O)COc1ccccc1Cc1ccccc1	100	106	1	-2
COC(=O)c1cc(C)sc1NC(=O)CN1CCN(Cc2ccccc2)CC1	99	102	0	-12
COc1ccc(Nc2nc(C(=O)NCc3ccccc3)cs2)cc1	106	113	9	x
O=C(Nc1ccc2nc3c(=O)[nH]c(=O)[nH]c3nc2c1)C(F)(F)F	72	191	-35	135
CN1CCN(C(=O)C2CCN(S(C)(=O)=O)CC2)CC1	100	104	-5	-4
Cc1ccc(-n2c(=O)c3cccnc3n2CC(=O)NCc2ccccc2Cl)cc1C	100	103	7	101
CC(Sc1nnnn1Cc1cccs1)C(=O)Nc1ccc2c(c1)OCCO2 (stereo not drawn)	103	106	-17	-2
O=C(Cn1c(-c2ccccc2)noc1=O)NCc1ccccc1	100	105	3	-5
Cc1nc(NC(=O)CSc2ccc3c(c2)OCCO3)c(Cl)cc1Cl	102	101	8	2
Cc1cc2oc(=O)cc(CSc3nnc(-c4ccoc4C)n3C)c2cc1C	100	94	-1	34
CCc1ccc2oc(-c3cc(N=Cc4ccccc4O)ccc3O)nc2c1	110	130	-21	x
O=C(CNS(=O)(=O)c1ccc(Cl)cc1)NN=C1CCCCC1	100	102	8	-9
NNC(=O)c1ccncc1	98&101	100&102	-6&-34	3&-16
Cc1ccc(CN2C(=O)CSc3ccc(C(=O)NCC4CCCO4)cc32)cc1 (stereo not drawn)	102	107	-11	-7
Cc1cc(Cl)ccc1OCC(=O)Oc1ccc2c(c1)OCO2	101	106	7	1
O=C1Nc2ccccc2O/C1=C\c1ccc(C(=O)NCCN2CCOCC2)cc1	101	100	-24	170
OC(COC1=NCNc2cc(Cl)ccc21)c1ccc(F)cc1 (stereo not drawn)	102	97	-3	-27
CCC(C)N(C(=O)CSc1nc2ccccc2c(=O)n1-c1ccccc1)C1CCS(=O)(=O)C1 (stereo not drawn)	100	97	2	29
Cc1c(/C=N/O)c2ccccn2c1C(=O)c1ccc(F)cc1	102	106	x	-14
O=C(NC12CC3CC(CC(C3)C1)C2)N1CCC(O)(c2ccc3c(c2)OCO3)CC1	102	104	27	-2
CCN(CC)C(=O)Cn1c(=O)sc2ccccc21	100	100	-9	-10
Cc1ccccc1N(CC(=O)NC1CCCC1)C(=O)c1csnn1	107	101	-81	-5
Oc1c(-c2nc3ccccc3s2)sc2ncccc12	47	237	-50	65
CC1(C)Cc2ccccc2C(=NC(Cc2c[nH]c3ccccc23)C(=O)O)N1 (stereo not drawn)	101	98	1	x
CC(C)N(C(=O)CSc1n[nH]c(-c2cccs2)n1)C(C)C	105	101	-1	-53
CN(C)c1ccc(/C=c2\s/c(=C(/C#N)C(=O)NCCN3CCOCC3)n(Cc3ccco3)c2=O)cc1	46	244	-291	2
CCOC(=O)c1ccc(NC2Nc3cc(C)nn3S2)cc1 (stereo not drawn)	109	108	-44	x
CCN(CC)C(=O)Cc1noc2ccccc12	101	102	2	-6
OCC1CCCCCN1 (stereo not drawn)	102	103	-55	-19
CC1CC(=O)C=C(O)C1C(=O)OC(C)(C)C (stereo not drawn)	102	104	-75	28
O=C(NCc1ccccn1)c1ccc2nc(N3CCCCC3)sc2c1	102	97	-34	-10
COc1cccc(-c2nn3c(Cn4cnc5ccccc54)nnc3s2)c1	66	123	-49	118
CN(C)S(=O)(=O)c1ccc(C(=O)Nc2cc(C(F)(F)F)ccc2N2CCOCC2)cc1	102	110	12	0
Cc1ccc(S(=O)(=O)Nc2ccc3oc(C)c(C(=O)NN)c3c2)cc1	72	111	9	22
CC1CCCC(NS(=O)(=O)c2cccs2)C1C (stereo not drawn)	102	106	23	-2
O=C(O)C1CN(C(=O)c2ccccc2)c2cc(Cl)ccc2O1 (stereo not drawn)	99	102	15	3
Cc1cc(C(=O)CSc2nnc(-c3ccc4c(c3)OCO4)o2)c(C)n1C1CCS(=O)(=O)C1 (stereo not drawn)	103	104	2	10
CC(C)C(C(=O)O)n1c(-c2cccs2)n[nH]c1=S (stereo not drawn)	101	100	7	10
CN1CCN(C(=O)c2c(Cl)nc3sccn23)CC1	103	99	x	1

# Not a hit list; about 1.8% have a hit in one of these screens.
